# Screening results: PubChem, several laboratories
# RecA intein inh – blocks M. tuberculosis RecA intein splicing; P9WHJ3; cell-free RecA intein splicing, fluorescence; inhibition, %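 (about 9 µM by stock and volumes)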; 290,000 compounds, 0.75% hits; in the data active = inhibition above about 30%; inconclusive = no clear call, values can overlap the other calls;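 note: 0% = vehicle wells and 100% = reference inhibitor control wells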
# Target sequence (P9WHJ3 whole entry, looked up): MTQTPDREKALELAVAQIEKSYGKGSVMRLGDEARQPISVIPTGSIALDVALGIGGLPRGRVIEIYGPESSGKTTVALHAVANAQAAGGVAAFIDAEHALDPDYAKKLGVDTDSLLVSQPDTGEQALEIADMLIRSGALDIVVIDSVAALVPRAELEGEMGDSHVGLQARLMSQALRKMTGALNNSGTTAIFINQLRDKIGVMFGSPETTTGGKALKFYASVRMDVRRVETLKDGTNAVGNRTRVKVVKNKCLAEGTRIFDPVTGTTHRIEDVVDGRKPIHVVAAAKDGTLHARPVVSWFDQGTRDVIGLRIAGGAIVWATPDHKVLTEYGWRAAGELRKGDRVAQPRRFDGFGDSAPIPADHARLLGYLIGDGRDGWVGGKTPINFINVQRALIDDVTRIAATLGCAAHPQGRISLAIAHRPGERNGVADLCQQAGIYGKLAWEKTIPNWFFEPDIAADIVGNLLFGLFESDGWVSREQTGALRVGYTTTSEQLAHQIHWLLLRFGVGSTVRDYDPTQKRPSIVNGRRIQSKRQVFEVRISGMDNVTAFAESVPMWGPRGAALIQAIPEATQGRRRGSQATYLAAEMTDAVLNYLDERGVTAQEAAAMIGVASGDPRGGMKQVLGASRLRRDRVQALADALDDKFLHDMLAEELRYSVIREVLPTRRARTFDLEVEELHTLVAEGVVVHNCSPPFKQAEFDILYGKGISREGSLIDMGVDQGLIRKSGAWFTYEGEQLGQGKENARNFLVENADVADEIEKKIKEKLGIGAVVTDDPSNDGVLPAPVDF
# Mtb bLac sens – beta-lactam sensitization of Mtb H37Rv; M. tuberculosis H37Rv growth with meropenem, percent inhibition; hits of this screen are not shown here; inhibition, % at 25 µM; 330,000 compounds, 0.27% hits; AID 434955;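 active = about 74% or more and at least 40 points above the plate without the antibiotic, then above 30% in a dose series; inconclusive = first-round hits that could not be retested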;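 note: growth measured after seven days incubation then overnight dye step; 0% = bacteria only wells and 100% = bacteria with antibiotic; twin plates without the antibiotic show which effects depend on it; some results filed as inactive read as strong as hits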
# Mtb H37Rv – M. tuberculosis H37Rv growth inhibitors, H37Rv strain (AID 1626); M. tuberculosis H37Rv growth inhibition; higher % means a stronger effect; inhibition, % at 10 µM, or IC50 in µM where a hit was titrated; 220,000 compounds, 0.95% hits;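 active = confirmed in a dose series; inconclusive = inhibition above 80% but not taken into the dose series; inactive = below 80% or under 30% at every dose of the series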;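 note: bacteria incubated seven days before Alamar blue readout; 0% = bacteria only wells and 100% = bacteria with antibiotic wells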
# Arbovirus anti – antivirals against arbovirus infection | arbovirus infection cell-based antiviral screen | inhibition, % at 10 µM | 200,000 compounds, 0.37% hits | AID 1251;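 active = inhibition from about 30%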;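 note: bluetongue infection of BSR cells; cell survival read as ATP light after 72 h; 0% = infected wells without compound and 100% = uninfected wells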
# YopH inh – inhibitors of Yersinia enterocolitica YopH tyrosine phosphatase; inhibition, %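 (about 10 µM by stock and volumes)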; 140,000 compounds, 0.16% hits; fluorescence Ex485/Em525;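 active = inhibition of 50% or more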;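 note: controls were vehicle for no effect and minimum signal wells for full effect; inactives centre near -20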
# Arbovirus anti repeat – further read-out of Arbovirus anti, marked with its call; inhibition, %; measured here: 10K subset replicate screen; many hits read low in the repeat;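 first of two repeat runs on a subset; 0% = infected and 100% = uninfected wells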
# * marks the source's active call; other numbers are inactive results; ? = inconclusive; · = not tested or not shown. A portion of the library (hit frequency here may not be typical).
SMILES,RecA intein inh,Mtb bLac sens,Mtb H37Rv,Arbovirus anti,YopH inh,others
O=C(NCc1n[nH]c(=S)n1-c1ccc(Br)cc1)c1cccs1,-1.0,-8,-2%,-1,·,
COC(=O)c1sc2cc([N+](=O)[O-])cc(SCC(C)C)c2c1N,-3.3,9,3%,1,-37,
CN(Cc1ccc2nsnc2c1)Cc1nc(Cc2cccc(F)c2)no1,-9.2,-2,6%,-3,·,
CCCn1nnnc1NCc1ccc(CC)cc1,-0.4,3,·,·,·,
Oc1cccc(/C=N/NC(=S)NCCN2CCOCC2)c1O,-38,3,1%,-7,·,
Cc1cc(/C=C(\C#N)C(=O)O)c(C)n1-c1ccc(Br)cc1,-16,-3,9%,·,·,
CCCN(CCC)C(=S)NC(=O)c1ccc(-c2ccccc2)cc1,-1.3,99,?,-19,-31,
O=C(OCc1cc2ccccc2[nH]c1=O)c1cccnc1,-1.1,-10,-4%,3,-67,
CCOC(=O)/C=c1\s/c(=C\c2sccc2C)c(=O)n1CC(=O)NCc1ccc(C)cc1,-94,-3,5%,-9,·,
COc1cc2ccccc2cc1C(=O)OCC(=O)N(C)c1c(N)n(Cc2ccccc2)c(=O)[nH]c1=O,0.3,-10,·,·,·,
COc1ccc(NC2CCCN(C(=O)CCC3=NNC(=O)CC3)C2)cc1 (stereo unspecified),-2.9,-6,·,·,·,
Cc1ccc(OCCCC(=O)Nc2ccc(S(=O)(=O)Nc3ccccn3)cc2)cc1,2.3,3,3%,1,·,
Cc1noc(NS(=O)(=O)c2ccc(NC(=O)CSc3nnc4c(n3)[nH]c3ccccc34)cc2)c1C,-3.0,-1,-2%,-9,-29,
c1ccc2c(c1)CCN(c1nc3ccccc3n3cnnc13)C2,1.2,0,8%,9,-10,Arbovirus anti repeat=-2
CC(C)C[C@H](NC(=O)C1CCN(S(=O)(=O)c2ccccc2)CC1)C(=O)NCc1ccncc1,1.5,-2,·,·,·,
CSC(=O)NC12CC3CC(CC(C)(C3)C1)C2,0.2,-7,-11%,3,-27,
COc1ccccc1-c1ccc(SCc2ccc(C)cc2)nn1,2.5,-3,10%,9,·,
CCN1CCN(c2ccc(S(=O)(=O)N3CCOCC3)cc2NC(=O)c2ccc(Cl)s2)CC1,-0.6,-11,·,·,·,
COC1CCN(C(=O)CC2C(=O)NCCN2CC2CCCCC2)CC1 (stereo unspecified),-1.4,5,1%,0,·,
CC(C)C(C)(C#N)NC(=O)CSc1nc2scc(-c3ccc(F)cc3)c2c(=O)n1Cc1ccccc1 (stereo unspecified),0.0,-11,7%,2,-32,
CC(C)CN1C(=O)/C(=C(/C#N)C(=O)NC2CCCCC2)c2ccccc21,-2.1,-4,2%,4,·,
COc1ccc(N2CCN(C(=O)CCCCCn3c(=S)[nH]c4cc5c(cc4c3=O)OCO5)CC2)cc1,-1.6,4,·,·,·,
CC(C)n1c(O)c(N=Nc2ccccn2)c2ccccc21,-1.1,28,10%,-12,-34,
O=C(O)CN1C(=O)C(=O)N(Cc2c(F)cccc2Cl)C1=O,-4.0,-3,·,·,·,
CCCCNC(=O)COC(=O)c1ccc(SC)cc1OC,-0.3,2,-4%,-2,·,
CCCc1c(C(=O)Nc2ccc(N3CCOCC3)cc2)cnn1-c1ccccc1,2.8,-4,-1%,·,·,
CCCCNC(=S)NNC(=O)c1csc(C(C)C)c1,1.3,2,4%,-5,-34,
Cc1cccc(NC(=O)CSc2nc3ccccc3c3nc(CCc4c(C)n[nH]c4C)nn23)c1,0.1,-7,5%,-28,18,
c1ccc(-c2ncc3ccccn23)cc1,-0.9,-4,1%,·,·,
O=C(O)c1cc(-c2ccncc2)nc2ccc(F)cc12,0.4,·,-1%,8,-60,
CCOc1ccc(S(=O)(=O)Nc2cccnc2)cc1,-0.9,-5,-7%,2,-31,
CCOc1ccc(NC(=O)CC(Cc2cc(C)cc(C)c2)C(=O)O)cc1 (stereo unspecified),2.4,-5,·,·,·,
COc1ccc2nc(SCC(=O)Nc3c(C)cc(C)cc3C)[nH]c2c1,-0.1,-8,-2%,0,-9,
O=CNc1ccc(S(=O)(=O)NCc2ccccc2)cc1,-1.3,-3,9%,0,-18,
Cc1cc(OCC(=O)N[C@@H](CSCc2ccccc2)C(=O)O)c2c(C)c(C)c(=O)oc2c1,0.2,-2,·,·,·,
CCCCOc1cccc(C(=O)Nc2ccc(NC(=O)c3ccco3)cc2)c1,-1.3,3,·,·,·,

# Three entries drawn at random from the list so far:
SMILES,RecA intein inh,Mtb bLac sens,Mtb H37Rv,Arbovirus anti,YopH inh,others
CCOc1ccc(S(=O)(=O)Nc2cccnc2)cc1,-0.9,-5,-7%,2,-31,
O=CNc1ccc(S(=O)(=O)NCc2ccccc2)cc1,-1.3,-3,9%,0,-18,
O=C(O)c1cc(-c2ccncc2)nc2ccc(F)cc12,0.4,·,-1%,8,-60,

# (further entries)
SMILES,RecA intein inh,Mtb bLac sens,Mtb H37Rv,Arbovirus anti,YopH inh,others
CN1C(=S)SC(/[N+]([O-])=C\c2ccc(Cl)cc2)C1(C)C (stereo unspecified),0.2,2,-2%,2,-22,
CCOC(=O)Cn1c(C)nc2c(C(=O)OCC)sc(C)c2c1=O,0.6,-13,-8%,3,-14,
COc1cccc(OC)c1C(=O)N1CCN(Cc2ccc3c(c2)OCO3)CC1,2.2,-9,-4%,-4,-36,
CCOC(=O)C1CCCN(S(=O)(=O)c2ccc3c4c2CC(=O)N4CC(C)S3)C1 (stereo unspecified),6.8,19,·,·,·,
CCOC(=O)CC1C(=O)NCCN1S(=O)(=O)c1ccc(Cl)cc1 (stereo unspecified),·,4,-7%,5,-48,
Cc1sc(NC(=O)c2ccccc2)c(C(=O)N2CCN(C)CC2)c1C,-2.1,-4,0%,-2,-14,
Cc1cccc(CC2SC(N3CCN(c4ccccc4)CC3)=NC2=O)c1 (stereo unspecified),2.8,-10,7%,2,-18,
COc1ccc(-c2nc(CCNS(=O)(=O)c3ccc4c(c3)OCCO4)cs2)cc1,2.5,-4,4%,-10,-7,
O=C(COC(=O)c1cccs1)NCc1ccc2c(c1)OCO2,-0.8,-9,-6%,6,-22,
O=C(NCc1ccccc1)Nc1cccn(Cc2ccccc2)c1=O,-6.6,5,11%,-4,1,
CC(=O)N1c2c(ccc3ccccc23)C(C)CC12CCCCC2 (stereo unspecified),28,11,1%,-26,-14,
CCCCn1c(=S)[nH]c2c(oc3ccc(Cl)cc32)c1=O,·,·,8%,-6,11,

# The list goes on, starting with the last 2 of the part before.
SMILES,RecA intein inh,Mtb bLac sens,Mtb H37Rv,Arbovirus anti,YopH inh,others
CC(=O)N1c2c(ccc3ccccc23)C(C)CC12CCCCC2 (stereo unspecified),28,11,1%,-26,-14,
CCCCn1c(=S)[nH]c2c(oc3ccc(Cl)cc32)c1=O,·,·,8%,-6,11,
CC(=O)Nc1ccc(S(=O)(=O)Oc2ccc(N3C(=O)C4CCCCC4C3=O)cc2)cc1 (stereo unspecified),0.5,-6,-4%,6,-40,
CC1(O)C[C@]2(C)N(O)C3CCCC[C@@H]3N2O1 (stereo partly specified),-6.0,-3,-4%,-4,-47,
O=C(NCc1ccco1)c1ccc(Cn2c(=O)c3ccccc3n(Cc3cccc(Cl)c3)c2=O)cc1,·,57,1%,-9,14,
Cc1ccc(C)c(OCC(=O)N2CCCN(C)CC2)c1,0.8,-5,4%,1,-30,
O=C(O/N=C/c1cccc([N+](=O)[O-])c1)C1CC1,0.3,73,1%,7,-30,
O=C(NCc1ccc(Cl)cc1)NCC(F)(F)F,-0.1,-11,-11%,-1,-27,
Cc1ccc(S(=O)(=O)NCCC(=O)NNC(=O)C2COc3ccccc3O2)cc1 (stereo unspecified),-4.8,-6,·,·,·,
Cc1ccc(S(=O)(=O)N2c3ccccc3NC(=O)C2CC(=O)Nc2ccccc2)cc1 (stereo unspecified),-1.0,-5,5%,5,-39,
COc1ccc(/C=C/C(=O)OCC(=O)Nc2ccc(Cl)cn2)cc1,-2.7,10,3%,12,·,
COc1ccc(N2C(=O)C3NN=C(C(=O)OCc4ccccc4)C3C2=O)cc1 (stereo unspecified),2.0,2,1%,0,·,
CCn1c(C)nc2cc(-c3nnc(-c4c(-c5ccccc5)noc4C)o3)ccc21,4.1,14,-8%,17,-21,
CCOC(=O)Cc1csc(NC(=O)CSc2nnnn2-c2ccc(C)cc2C)n1,0.1,0,6%,0,-21,
Cc1ccc(C(=O)Nc2cc3c(oc2=O)CCCC3=O)cc1,-0.5,-2,-7%,-3,-24,
O=C(CSc1nnc(-c2ccc(Cl)cc2Cl)n1C1CCCCC1)N1CCCC1,0.7,2,-5%,-7,-13,
Cc1ccc(NC(=O)C2CCN(c3ncnc4c3nc3n4CCCCC3)CC2)cc1Cl,-0.7,10,·,·,·,
O=C(Nc1ccc(Cc2ccncc2)cc1)c1ccc(S(=O)(=O)N2CCOCC2)cc1,2.0,-9,-3%,0,-6,
O=C(Nc1ccc(F)cc1)NC1CCN(Cc2ccccc2)CC1,2.4,-7,-5%,2,·,
O=C(N/N=C/c1c(Cl)cccc1Cl)C(=O)NC1CC1,-2.6,0,9%,2,·,
CC(C)COc1ccc(C(=O)N/C(=C\c2cccc([N+](=O)[O-])c2)C(=O)O)cc1,-2.0,-4,-10%,·,·,
C=CCCN(Cc1ccccc1)S(=O)(=O)c1ccccc1Br,14,2,-3%,·,·,
Nc1ccc(Cl)cc1/C(=N/O)c1ccccc1,2.0,-1,-7%,14,-16,
COC(=O)c1ccc(NC(=O)C(OC)c2ccccc2)cc1 (stereo unspecified),2.9,3,2%,-1,·,
C=CCNC(=S)Nc1ccc2nc(C)c(C)nc2c1,0.3,18,0%,6,-50,
O=C(Nc1cccc(Cl)c1)N1CCSc2cc(Cl)ccc21,2.5,21,29%,5,-35,
COc1ccc(N2CCN(C(=O)CSc3nnc(Cn4nnc5ccccc54)n3C)CC2)cc1,-1.3,8,-2%,2,-25,
Cn1nnnc1SCc1cccc(CSc2nnnn2C)n1,0.1,-9,-9%,6,-27,
Cc1onc(-c2ccccc2Cl)c1-c1nc(-c2ccncc2)no1,11,5,7%,4,-20,
Cc1c(C(C)NC(=O)c2cc(COc3cccc4cnccc34)on2)cnn1C (stereo unspecified),1.2,1,·,·,·,
O=C(NCc1cccnc1)c1ccc(Cn2c(=S)[nH]c3ccc(Br)cc3c2=O)cc1,-4.3,29,30%,-7,·,
Cc1nc2ccccn2c1C(=O)NNC(=O)Nc1ccccc1,0.7,?,·,·,·,
CNc1ccccc1C(C)(C)c1cc(C)[nH]n1,2.6,3,8%,5,·,
Cc1ccc(C)c(NC(=O)CN(C)C(=O)C2CCN(S(=O)(=O)c3ccc4c(c3)OCCO4)CC2)c1,-0.2,-5,·,·,·,
CC(C)CCNC(=O)C(c1ccc(O)cc1)N(Cc1cccs1)C(=O)C1COc2ccccc2O1 (stereo unspecified),13,68,12%,-31,-28,
CCSC(C)CC1CC(=O)CC(=O)C1 (stereo unspecified),1.3,-8,-4%,-1,-26,Arbovirus anti repeat=1
CNC(=O)c1sccc1Oc1ccc(F)cc1[N+](=O)[O-],-0.9,-5,-5%,-3,·,
COc1ccc(C(=O)NC(=O)NC2(C(Cl)(Cl)Cl)OCCO2)cc1,0.5,11,-2%,6,·,
Cc1cc(C)c(C#N)c(SCCN2CCOCC2)n1,-0.6,1,-6%,·,·,
CCOc1nc(NC2CCCCC2)nc(NC(C)(C)C)n1,13,-3,10%,-8,-9,
Cc1ccc(NC(=O)c2ccc(S(=O)(=O)Nc3c(C)n(C)n(-c4ccccc4)c3=O)cc2)nc1,-1.3,-5,·,·,·,
O=C(CN1CCC(Cc2ccccc2)CC1)NCCc1ccc(F)cc1,2.6,-1,9%,0,·,
Clc1ccc(Cn2nnc(-c3ccc(N4CCOCC4)cc3)n2)cc1,-2.5,5,-13%,0,-36,
C/C(=N\NC(=O)c1c(Cl)c(C)nn1C)c1ccc(NC(=O)COc2ccc(Cl)cc2C)cc1,-2.4,-6,10%,-8,-30,
CCOCc1nnc(NS(C)(=O)=O)s1,1.9,6,-3%,2,-36,
COc1ccc(CNC(=O)Cn2c(=O)oc3cc(S(=O)(=O)N4CCCC4)ccc32)cc1,2.5,-4,·,·,·,
CC1CCCCC1NC(=O)CCn1c(=O)sc2ccccc21 (stereo unspecified),-3.4,2,·,·,·,
COc1cc(-n2c(=O)c3ccccc3n(Cc3cc(=O)n4ccccc4n3)c2=O)cc(OC)c1OC,1.8,1,-5%,3,-3,
O=C(CCCOc1ccccc1)N1CCN(c2ccc(F)cc2)CC1,-3.1,-2,0%,15,-11,
O=C(CSc1nnc(-c2ccncc2)o1)NCc1ccc(Cl)cc1,5.1,2,-6%,1,-21,
